# From PubChem BioAssay
# gsp antagonist – gsp mutant antagonism; AID 624288; 340,000 tested, 0.4% active; Potency, µM (series often up to 76.9 µM), inactives show top-dose activity change, negative = inhibition, usual class: inhibitors; gsp-mutant cells, cAMP HTRF, 30 min; control for the full effect not named in the record; active = falling curve of any shape with a large fitted effect; inconclusive = falling curve, mostly with a smaller effect; inactive = flat or rising curve; cell line not stated here;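 also: intracellular cAMP measured with PDE inhibitor Ro 20-1724 present during compound exposure; potency is read from the fitted curve at half-maximal effect; % is scaled to controls: 0 for no effect and ±100 for the full control effect; nearly all actives have a fitted effect of over 65% in size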
#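 G418-selected cells were plated in DMEM/10% FBS for 16-24 h at 37C, then treated with compounds plus the PDE inhibitor […] (300 uM solution added) for 30 min at 37C. Intracellular cAMP was measured by HTRF after 30 min lysis at room temperature.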
# ClpP mod – qHTS Assay for Activators of ClpP | ATP-dependent Clp protease proteolytic subunit (Bacillus subtilis (strain 168)), P80244 | purified B. subtilis ClpP, FRET peptide cleavage, 20 min | Potency, µM (series often up to 57.5 µM), without a hit: at the top dose activity change, negative = active | 340,000 tested, 1.9% active | AID 651965, 2013; active = well fitted falling curve with a large enough effect; inconclusive = small, poorly fitted or top-dose-only effect; inactive = no such curve, though single readings can be large or run the other way; also: potency is read from the fitted curve at half-maximal effect; the source files actives as falling curves though it sought activators and does not explain the sign; nearly all actives have a fitted effect of over 65% in size; many hits overshoot -100%
# Target sequence (P80244 whole entry, looked up): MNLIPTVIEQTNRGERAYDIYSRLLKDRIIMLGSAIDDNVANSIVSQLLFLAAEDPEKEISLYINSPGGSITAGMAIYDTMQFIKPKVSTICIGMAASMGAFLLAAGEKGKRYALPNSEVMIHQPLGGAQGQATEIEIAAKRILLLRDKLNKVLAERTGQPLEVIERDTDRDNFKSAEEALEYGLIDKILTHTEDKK
#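 Buffer: 100 mM Tris/HCl pH8, 100 mM KCl, 0.05% low protease BSA, 2.5% glycerol, 0.01% Tween-20. ClpP 10 microg/mL final; 20 min RT; delta FRET normalized to ADEP and DMSO controls.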
# CtBP-E1A blk – blocks the CtBP interaction with E1A | 340,000 tested, 0.49% active | AlphaScreen GST-E1A/His-CtBP binding, 1536-well; hits give low values; control for the full effect not named in the record | activity change, % (no concentration beside the values); in the data active means activity change below about -65%; inconclusive means about -30% to -65%; inactive means above about -30%; also: % is scaled to controls: 0 for no effect and ±100 for the full control effect; compound concentration not given in the record
#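 Steps: dispense buffer (Tris pH 8.0, NaCl 300 mM, TCEP 1 mM, BSA, Tween 20); add 5X protein mix (GST-E1A, His-CtBP, 125 nM each); pin 23 nL compound; 2 h at 37 °C, dark; add 5X beads (50 ug/mL); 1 h; read.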
# Menin MLL FP FL – displaces fluorescein MLL peptide from human menin; FP activity change, % at 61.4 µM; Fluorescence polarization, fluorescein-MLL peptide displacement from menin; AID 1766; 290,000 tested, under 10 active; inconclusive = falling polarisation curve, or a change in total fluorescence; inactive = total fluorescence flat and polarisation flat or rising; no compound was filed as active; the % refers to the polarisation; negative = inhibition;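 also: % of control where 0% means no effect; inhibitors lower the polarisation; unlabelled MLL peptide was the positive control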
# TRPV1 PAM – human TRPV1 potentiation; Q8NER1; TRPV1-expressing cells, Fluo-8 calcium influx, capsaicin EC20 potentiation; host cell line not named in the record; control for the full effect not named in the record; potentiation, % at 8.33 µM; 320,000 tested, 0.02% active; active means potentiation above 80%; inconclusive means 30% to 80%; inactive means below 30%; also: 0% is about no effect
# Target sequence (Q8NER1 whole entry, looked up): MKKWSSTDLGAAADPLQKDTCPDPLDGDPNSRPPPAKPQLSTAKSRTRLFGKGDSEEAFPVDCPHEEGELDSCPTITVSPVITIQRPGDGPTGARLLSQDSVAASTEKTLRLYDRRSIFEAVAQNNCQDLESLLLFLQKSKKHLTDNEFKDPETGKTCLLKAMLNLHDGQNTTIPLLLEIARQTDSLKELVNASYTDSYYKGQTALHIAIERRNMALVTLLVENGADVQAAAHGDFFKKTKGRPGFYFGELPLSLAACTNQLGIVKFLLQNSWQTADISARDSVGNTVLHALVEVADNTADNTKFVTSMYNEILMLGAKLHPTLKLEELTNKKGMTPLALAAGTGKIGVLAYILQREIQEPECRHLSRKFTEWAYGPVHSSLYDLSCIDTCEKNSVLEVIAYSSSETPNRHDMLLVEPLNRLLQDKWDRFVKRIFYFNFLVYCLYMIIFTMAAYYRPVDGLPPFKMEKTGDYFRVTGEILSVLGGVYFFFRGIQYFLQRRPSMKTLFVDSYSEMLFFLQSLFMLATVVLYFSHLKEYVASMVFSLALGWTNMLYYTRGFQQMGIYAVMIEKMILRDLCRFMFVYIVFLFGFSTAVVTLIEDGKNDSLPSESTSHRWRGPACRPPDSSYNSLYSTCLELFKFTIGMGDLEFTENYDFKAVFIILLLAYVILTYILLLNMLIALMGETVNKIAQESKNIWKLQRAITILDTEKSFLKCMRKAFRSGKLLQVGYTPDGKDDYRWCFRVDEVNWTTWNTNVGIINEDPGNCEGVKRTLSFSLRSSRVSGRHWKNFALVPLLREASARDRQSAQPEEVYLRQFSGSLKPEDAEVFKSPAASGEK
#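 Cells expressing TRPV1 were dye-loaded with Fluo-8 and read kinetically: 10 s baseline, 3 min after compound (agonist portion), then 2 min after EC20 capsaicin (allosteric enhancer portion). Calcium-bound dye fluorescence at 480/520 nm.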
# gsp agonist – agonists of gsp mutant (McCune-Albright syndrome); Potency, µM (highest dose often 76.9 µM), inactives show at the highest dose activation (cAMP increase), usual class: activators; gsp mutant cells, cAMP HTRF, 30 min; control for the full effect not named in the record; 340,000 tested, 0.13% active; active = well fitted activation curve with a large enough effect; inconclusive = small, poorly fitted or top-dose-only effect, or another doubt; inactive = no such curve, though single readings can be large or run the other way; cell line not stated here;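 also: phosphodiesterase inhibitor Ro 20-1724 added with compounds to block cAMP breakdown; potency is read from the fitted curve at half-maximal effect; nearly all actives have a fitted effect of over 60% in size; about a fifth of the inactives were tested at one dose only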
#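 Cells stably selected in G418 were plated at 2000/well, grown 16-24 hr, then given compounds in DMSO with the PDE inhibitor […] (300 uM solution added) for 30 min at 37C; cAMP was read by HTRF.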
# Sfp PPTase inh – inhibitors of Bacillus subtilis Sfp phosphopantetheinyl transferase; Q9F4F7; Biochemical Sfp PPTase activity, qHTS; Potency, µM, inactives show max response, negative = inhibition, actives largely listed as inhibitors; 310,000 tested, 3.5% active; active = well fitted inhibition curve with a large enough effect; inconclusive = small, poorly fitted or top-dose-only effect, or another doubt; inactive = no such curve, though single readings can be large or run the other way;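 also: the enzyme is Sfp with the accession as filed and its product quenches rhodamine fluorescence; potency is read from the fitted curve at half-maximal effect; 0% = enzyme reaction without inhibitor and -100% = no enzyme wells; top concentration of the series not given in the record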
#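 Sfp 15 nM + cpd, 15 min RT; start w/ rhodamine-CoA 5 uM, BHQ-2-YbbR 12.5 uM (final); 50 mM Hepes pH 7.6, 10 mM MgCl2, 0.01% NP-40, 0.01% BSA; read 525/598 nm at 0 and 30 min.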
# Numbers without * were called inactive; u = inconclusive; x = no result given; [ ] = dose if it differs, or a comment.
# Below each SMILES: gsp antagonist	ClpP mod	CtBP-E1A blk	Menin MLL FP FL	TRPV1 PAM	gsp agonist	Sfp PPTase inh
CCCn1nnc(NC(=O)c2ccc(Br)o2)n1
  23%	-0.3%	2	-0.1	17	-11%	-7%
COC(=O)CSc1nnc(NC(=O)C2CC(=O)N(c3ccc(F)cc3)C2)s1 (stereo not given)
  u	-0.8%	-1	x	-6	21%[15.4 µM]	-22%
O=C(N/C(=C/c1ccco1)C(=O)N1CCCC1)c1cccs1
  1%	-1.4%	-2	u	1	9%	32µM*
COc1ccc(CN2CC(C(=O)NCCC(C)C)CC2=O)cc1 (stereo not given)
  -1%	-1.4%	3	-3.1	16	13%[15.4 µM]	6%
CN(c1cccc(NS(=O)(=O)c2ccccc2)c1)S(C)(=O)=O
  x	x	-1	0.1	-4	4%[15.4 µM]	1%
COc1ccc(-c2cc(C)no2)cc1S(=O)(=O)Nc1ccccc1
  -7%	0.3%	0	x	8	4%	6%
O=C(NC1CCCCC1)C1CCN(c2cnccn2)CC1
  -8%	-15%	-4	-4.3	14	8%	7%
COc1cc(F)ccc1S(=O)(=O)N1CCN(C23CC4CC(CC(C4)C2)C3)CC1
  4%	0.5%	-2	-9.6	u	-34%[inhibitor]	-2%
Cc1ccc(-c2nnc3c(C(F)(F)F)nc4ccccc4n23)cc1
  0%	13µM*	13	0.3	4	-21%	8%
O=C(NCc1nnc(SCC(=O)N2CCCC2)o1)c1c(F)cccc1F
  2%	0.4%	8	4.2	-15	-11%	9%
COc1ccccc1NC(=O)N1CCN(C(=O)c2ccco2)CC1
  12%	x	0	x	6	-8%[15.4 µM]	23%
COc1ccc2cc(C(C)C(=O)Nc3cccc(S(=O)(=O)N(C)C)c3)ccc2c1 (stereo not given)
  -20%	-1.6%	12	x	-10	3%[15.4 µM]	6%
CCc1cc2c(N3CCCCC3)ncnc2s1
  -8%[15.4 µM]	-5.8%	10	0.0	14	-7%	-25%
CN1CCN(c2nc(-c3ccc(Cl)s3)cs2)CC1
  10%	x	0	-6.4	-10	-10%[15.4 µM]	-77%
CC(C)(C)c1ccc(C(=O)OCCN2CCCCC2)cc1
  4%	1.5%	x	5.6	5	4%	-9%
Cc1ccc(S(=O)(=O)c2cnc(-c3ccccc3)nc2N2CCN(C)CC2)cc1
  -8%	-2.0%	-18	-3.4	0	1%	-10%
COc1ccc(C(=O)O/N=C(\N)c2ccc(Cl)cc2)cc1
  8%	-1.3%	0	7.6	-7	3%	21%
C/C(=N\Nc1nc2ccccc2s1)c1cccs1
  -20%	x	-7	8.4	-7	-42%[inhibitor]	-56%
O=C(O)c1cccc2[nH]c(C(F)(F)F)nc12
  -7%	-13%	-4	-8.2	-2	-51%	-11%
C[C@H](CO)N1C[C@H](C)[C@@H](CN(C)C(=O)NC2CCCCC2)Oc2ccc(NC(=O)C3CC3)cc2C1=O
  9%	-1.6%	11	x	x	21%	x
Cn1c(SCC(=O)N/N=C/c2cccs2)nc2ccccc21
  6%	-2.0%	1	-2.2	4	8%	11%
C=CC#CC1(O)CC(C)N(C)CC1C (stereo not given)
  6%	-2.6%	-20	3.0	-12	2%[15.4 µM]	-5%
Cc1cccc(NC(=O)COC(=O)[C@@H]2CCCN2C(=O)c2cccs2)c1
  -12%	-1.2%	-2	x	x	-7%[15.4 µM]	x
N#CCc1ccc(NS(=O)(=O)c2ccc(N3CCCC3=O)cc2)cc1
  -3%	1.5%	5	0.8	-6	-3%	7%
Cc1[nH]nc(S(=O)CC(=O)O)c1[N+](=O)[O-] (stereo not given)
  12%	x	-2	5.6	-1	-3%	-13%
COc1cc(C(=O)Nc2ccc(N3CCCS3(=O)=O)cc2)c([N+](=O)[O-])cc1OC
  6%	-2.1%	-1	x	7	-40%[inhibitor]	x
Cc1cccn2c(=O)c(C=O)c(Cl)nc12
  12%	0.6%	1	4.5	-18	-10%[15.4 µM]	-6%
COC(=O)c1c(NC(=O)Cc2ccccc2)sc2c1C(C(=O)OC)CC2 (stereo not given)
  -7%	-18%	-4	3.1	-11	-6%	79µM*
COc1ccc(NC(=O)ON=C2c3ccccc3-c3ccccc32)cc1
  2%	-1.6%	-2	9.6	-8	-23%	u
CCCSC1=C(C#N)C(c2ccccc2C)C(C(=O)OC)C(=O)N1 (stereo not given)
  4%	0.2%	0	-1.1	-6	-18%	-14%
CC(C)(C)NC(=O)NC(=O)COC(=O)Cc1c(F)cccc1Cl
  0%	-0.2%	6	-0.3	3	-1%[15.4 µM]	-8%
O=S(=O)(c1ccccc1)[C@@]1(c2ccccc2)C[C@@H]2ON=C(c3cccc(Br)c3)[C@@H]2C1
  -10%	-0.7%	3	x	-13	x	x
COc1ccc(NC(=O)CN(C)CC(=O)N(CC(C)C)c2c(N)n(CC(C)C)c(=O)[nH]c2=O)cc1
  9%	-9.6%	5	x	x	-40%[inhibitor]	x
CC(C)C(NC(=O)C12CC3CC(CC(C3)C1)C2)C(=O)NC1=NCCS1 (stereo not given)
  x	x	x	3.9	5	x	1%
Cc1cc(C)c2nc(NC(=O)c3ccc4c(c3)OCO4)sc2c1
  4%	-10%	44	1.5	12	21%	11%
CCn1c(=O)c2cc(C(=O)N(C)c3ccccc3F)sc2c2ccccc21
  -8%	x	7	2.2	x	9%[15.4 µM]	-6%
CCC(C)NC(=O)CCc1nc2ccccc2n1-c1ccccc1 (stereo not given)
  25%	-3.2%	-6	3.1	-2	u	8%
Cc1ccc(-c2nc(N)sc2-c2ccc(C)cc2)cc1
  u	x	-9	2.3	0	-16%[15.4 µM]	18%
Cc1nc2ccccc2n1CC(=O)NC(C)C1CC2CCC1C2 (stereo not given)
  -5%	-18%	3	-2.7	3	11%[15.4 µM]	-8%
Cc1ccc(-c2csc(-c3c[nH]c4ccccc34)n2)cc1
  -15%	u	-16	-2.0	13	18%	27%
COc1ccc(CN2c3cc(S(=O)(=O)N4CCOCC4)ccc3N3CCCC32)cc1 (stereo not given)
  2%	-3.0%	3	4.6	2	u	1%
COc1ccc2[nH]c(=O)c(CNC3CCCCC3)cc2c1
  5%	16µM*	-1	-0.3	-5	-1%	7%
O=C(CN(C(=O)c1csnn1)c1cccc(Cl)c1)NCCc1ccccc1
  3%	-1.3%	8	-4.6	13	4%[15.4 µM]	10%
CCOC(=O)c1sc(Nc2nc3ccc(OC)cc3s2)cc1C
  -5%	x	1	2.6	2	4%[15.4 µM]	u
COc1ccc(NC(=O)COc2cccnc2[N+](=O)[O-])cc1OC
  3%	-7.9%	4	-0.2	3	5%[15.4 µM]	6%
N=c1c2c(-c3ccccc3)c(-c3ccccc3)n(Cc3ccco3)c2ncn1CCO
  0%	0.8%	-9	1.5	-22	-14%	-7%
COc1ccc(NCc2nnc(SCC(=O)c3ccc(OC)cc3)o2)cc1
  -19%	6.0%	-17	4.8	7	u	-1%
CCC(CC)c1nnc(NC(=O)c2nc3nc(C)cc(C)n3n2)s1
  3%	-4.0%	-8	1.4	10	-62%[inhibitor]	56µM*
Cc1ncc([N+](=O)[O-])n1CC(=O)Nc1cccc(C(F)(F)F)c1
  -2%	0.0%	x	-1.2	-23	-17%	15%
CN(C)c1cccc(C(=O)NCc2ccc(Cl)cc2)c1
  5%	x	5	-3.4	-10	-6%[15.4 µM]	13%
COc1cccc(/C=C2/C(=O)NN(c3ccccc3)C2=O)c1
  -3%	-3.9%	-1	-3.6	0	3%[15.4 µM]	u
CCOc1ccc(-n2c(SCC(=O)Nc3cc(OC)c([N+](=O)[O-])cc3C)nc3ccccc32)cc1
  5%	x	0	6.0	-8	-2%	19%
O=C(Cc1ncn[nH]1)NCCc1ccccc1
  u	-3.0%	-17	4.6	x	-3%	10%
CC(NCCc1ccc(S(N)(=O)=O)cc1)C(=O)NCc1ccccc1 (stereo not given)
  7%	-2.2%	-4	1.4	11	-8%	5%
NC(=O)c1cc(Br)cc2c3c([nH]c12)CCCC3
  -7%	-1.6%	-21	-22	1	14%	-9%
Cc1ccccc1CO/N=C/c1[nH]ncc1Br
  -1%	x	5	1.7	7	-21%	15%
Cc1ccc(S(=O)(=O)Nc2ccccn2)cc1[N+](=O)[O-]
  4%	x	8	-1.9	7	-3%[15.4 µM]	-6%
Cc1ccc(CSCC(=O)Nc2ccc3c(c2)OCO3)cc1
  -8%	1.1%	-6	3.6	-5	13%	6%
Oc1ccccc1N=Nc1ccccc1O
  35µM*	0.4%	x	-1.4	25	-7%	19%
NS(=O)(=O)c1ccc(CCNC(=O)CSc2nc3ccccc3c3nc(CCN4CCCCC4)nn23)cc1
  13%	x	7	-0.7	-6	25%	8%

# Later entries.
# Below each SMILES: gsp antagonist	ClpP mod	CtBP-E1A blk	Menin MLL FP FL	TRPV1 PAM	gsp agonist	Sfp PPTase inh
Cc1nc(C)c(C(=O)Nc2nc3c(C)cccc3s2)o1
  -28%	-2.5%	-4	-7.6	0	30%	50µM*
CC(=O)NC1CC2CCCC(C1)N2C(=O)Nc1cccc(C)c1 (stereo not given)
  -2%	x	4	x	x	u	x
Clc1ccc(C(c2nnnn2C2CCCC2)N2CCN(Cc3ccncc3)CC2)cc1 (stereo not given)
  -4%	-2.5%	-11	0.2	-15	-28%	17%
CCN(C(=O)COC(=O)/C(=C/c1ccccc1)n1nnnc1C)C1CCCCC1
  10%	-2.4%	-4	x	4	u	x
OCC1OC2C(NC(=S)N2c2ccccc2)C(O)C1O (stereo not given)
  7%	-2.2%	13	x	x	8%	x
COc1cccc(/C=N/N2C(=O)NC3(CCCCC3)C2=O)c1O
  0%	-2.7%	-1	-4.1	7	0%	3%
CCc1ccccc1OCC(=O)N1CCN(c2ncccn2)CC1
  3%	-19%	-5	x	9	0%	x
CC(=O)N1CCN(S(=O)(=O)c2cccc(C(=O)NNC(=O)COc3c(C)cccc3C)c2)CC1
  4%	-2.2%	-4	x	x	-9%[15.4 µM]	x
COc1ccc(/C=C/C=N/NC(=O)COc2ccc(OC)cc2)cc1
  -1%	-21%	-5	3.2	11	-30%[inhibitor]	4%
